# Bioassay records: PubChem BioAssay, several laboratories
# RN4220 kill – growth inhibition of S. aureus RN4220, primary screen, OD600 | 16 h | inhibition, % (concentration not given with the values) | 0.33% of 330,000 active | AID 1259311, 2017;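 active means z-score of -3 or lower and OD600 up to 0.18 on both plates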;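 further: plate controls were untreated cells for no effect and reference antibiotic for full effect; stock transfer was 100 nL into about 80 µL; one replicate is shown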
# Mtb hypoxia inh – PubChem AID 1159583; M. tuberculosis hypoxia-regulated fluorescent reporter, fluorescence; fluorescence inhibition, % (no concentration beside the values); 0.1% of 300,000 active;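 active means 35 to 45% if threefold the growth effect, above 45% if 1.5-fold the growth effect; inactive means the rest, general growth blockers included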;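 further: wells of about 50 µL received 100 nL stock; 0% = vehicle wells and 100% = reference inhibitor wells; whole bacteria with a GFP reporter of the hypoxia response; strong numbers were not always called active; many hits fall short of the cut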
# PrP UTR inh – inhibition of PrP 5' UTR reporter expression. cell-based PrP 5' UTR mRNA reporter, plate reader. inhibition, % (concentration not given with the values). 0.35% of 340,000 active;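 active means every replicate at 50% or more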;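 further: 0 = median of the neutral control wells; tested in H4 reporter cells; numbers are from one replicate; inactives centre near -14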
# ugtP null kill – growth inhibition of ugtP-null S. aureus, primary screen, RN4220 ugtP deletion, OD600; growth inhibition, % (no concentration beside the values); 0.54% of 330,000 active; 16 h; some inactives read as strong as hits;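 active means z-score under -3 and OD600 up to 0.15 on both plates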;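 further: plate controls were untreated wells for no effect and antibiotic for full effect; wells of about 80 µL received 100 nL stock; the first replicate is given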
# BJeLR lethal – MLPCN primary cell-based screen for lethality selective to Ras in HRASV12 cells. 0.17% of 300,000 active. inhibition, % (test concentration not listed). BJeLR (HRASV12) viability, CellTiter-Glo ATP luminescence, 48 h; reference of the scale not given here;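 active means replicate mean above 50%; inconclusive means above 50% but judged a plate artefact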;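 further: 50 nL library stock added to about 25 µL; numbers are from one replicate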
# Bead autofluor – compound fluorescence in toxin protease inhibitor counterscreen; 3.1% of 360,000 active; AID 624483; compound autofluorescence counterscreen, microsphere flow cytometry; active compounds read high; fluorescence intensity (concentration not given with the values);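 active means at least 3 SD above the mean of all compounds, about 16000 in these data; inconclusive means too few beads counted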;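 further: 100 nL of 1 mM stock went into each well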
# Mtb hypoxia inh growth – also measured in Mtb hypoxia inh; calls as there; growth inhibition, %; measured here: M. tuberculosis growth (absorbance);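 0% = vehicle and 100% = reference antibiotic; read after six days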
# * hit, by the source's call; ? = inconclusive; . = not tested or not shown.
# Values in the order: Bead autofluor	PrP UTR inh	ugtP null kill	Mtb hypoxia inh	RN4220 kill	BJeLR lethal	Mtb hypoxia inh growth
COc1ccc(CNC(=O)CCn2c(C)csc2=O)cc1
    3257	0	4	9	3.6	.	3
COc1ccc(OCC(=O)N2CCc3c([nH]c4ccccc34)C2c2ccccn2)cc1 (stereo not given)
    2331	1	-7	5	5.2	4	6
C[N+]1(C)CCC(OC(=O)C(c2ccccc2)c2ccccc2)CC1
    5365	-16	3	2	4.7	-11	4
CCOC(=O)c1[nH]c(=O)c2ccccc2c1O
    9909	-23	3	2	3.0	6	8
Cc1cc(Cl)nc(-n2nc(C)cc2C)n1
    5325	.	4	-2	1.3	-6	-7
Cc1ccc(CSc2nnc(CC(=O)Nc3ccc(C)cc3)n2C)cc1
    19547*	-9	-1	6	-0.8	0	9
CN1/C(=C\C=Nc2ccccc2)C(C)(C)c2ccccc21
    4135	-4	-6	-2	5.0	-10	-4
COc1ccc(C(=O)N/N=C2\CCS(=O)(=O)c3ccc(F)cc32)cc1OC
    4528	-15	.	.	.	25	.
Fc1ccc(C2c3[nH]c4ccccc4c3CCN2Cc2ccoc2)cc1 (stereo not given)
    4422	-23	4	8	-0.8	-13	1
COC(=O)CCCn1c(C)cc(C(=O)CCl)c1C
    4161	-18	3	20	8.8	10	24
Cc1ccccc1CN1CCN(c2ccc(S(=O)(=O)N3CCCC3)cn2)CC1
    6148	-3	8	5	5.1	.	10
O=C(NCCN1CCOCC1)c1ccc(NC(=O)C2COc3ccccc3O2)cc1 (stereo not given)
    3913	-13	1	12	1.0	-3	2
CCN(CC(=O)Nc1c(F)cccc1F)C(=O)c1ccc2c(c1)S(=O)(=O)N=C1CCCCCN12
    ?	0	1	3	2.1	-1	-2
COC(=O)NN=Cc1ccccc1OCc1ccccc1
    .	.	0	11	4.5	.	-4
CCCCn1c(N)c(N(CCOC)C(=O)CSc2nnc(-c3ccncc3)n2CCC)c(=O)[nH]c1=O
    6006	-16	2	13	1.6	-4	-3
Cc1ccc(NC(=O)c2cc(S(=O)(=O)N3CCOCC3)ccc2F)c(C)c1
    9937	-23	-5	12	4.5	1	7
Cc1ccc(C(=O)N/C(=C\c2cccnc2)c2nc3ccccc3[nH]2)cc1
    2471	-27	9	2	2.1	-7	11
CCOC(=O)c1cnn2c(N)c(C#N)nnc12
    12047	-19	7	19	5.6	1	6
CC(C)[C@H](NC(N)=O)C(=O)NNC(=O)COc1cccc(C(F)(F)F)c1
    4189	-32	11	1	2.8	-2	1
CN(c1ccc(C(=O)Nc2ccc3c(c2)n(C)c(=O)n3C)cc1)S(C)(=O)=O
    3676	-11	5	17	4.3	-11	5
Cc1onc(-c2c(F)cccc2Cl)c1C(=O)NCCc1ccncc1
    4251	-10	6	1	4.8	0	-4
COc1cc(/C=C2/C(=N)N3C(=NC2=O)SN=C3S(C)(=O)=O)ccc1OS(=O)(=O)c1ccc(C)cc1
    5195	-21	1	-7	0.1	5	-7
Cc1ccc(S(=O)(=O)Nc2c(C(=O)O)[nH]c3ccccc23)c(C)c1
    5273	-15	22	7	12	6	5
Cc1sc(NC(=O)C2CCCO2)c(C(N)=O)c1C (stereo not given)
    3271	3	7	0	3.2	-3	4
CCCCc1c(O)nc(SCC(=O)N2CCCCC2)[nH]c1=O
    3272	2	4	5	6.9	6	0
C/C(=N\NC(=O)c1ccccc1Cl)c1c(O)n(C2CCCCC2)c(=O)[nH]c1=O
    5499	-24	-5	12	8.6	8	5
CCOC(=O)c1[nH]c2ccc(C(=O)OC)cc2c1C(=O)OCC
    4050	13	-11	1	8.8	-8	4
O=C(NNC(=O)C12CC3CC(CC(Br)(C3)C1)C2)c1ccccc1F
    4188	-5	2	7	0.3	.	-6
Cc1cc(C)n2nc(SCC3COc4ccccc4O3)nc2n1 (stereo not given)
    8494	-50	0	-7	0.9	-12	1
N=c1sccn1CC(=O)Nc1cc(Cl)ccc1Oc1ccccc1
    4144	-27	-12	.	-6.7	6	.
O=C(c1cc(-c2ccc(Br)cc2)on1)N1CCc2ccccc2C1
    5102	-16	0	3	1.0	6	2
CC1CCN(c2ccc3nnc(CCC(=O)Nc4cc(F)ccc4F)n3n2)CC1
    6285	-13	0	21	5.0	6	3
O=C(NC1CCCCCC1)C1CCCN(S(=O)(=O)c2cnc[nH]2)C1 (stereo not given)
    5129	-8	4	.	0.1	1	.
COc1ccc(C=NNC(=O)CNC(=O)c2ccncc2)cc1OC
    .	.	11	-2	2.1	.	0
C[C@@H]1CN(C2CCN(Cc3nc(CC4CC4)no3)CC2)C[C@H](C)O1
    6351	-11	2	4	-0.3	2	6
COc1cc(/C=C/C(=O)OCC(=O)Nc2ccc(Cl)cn2)ccc1O
    3404	-23	-5	2	4.6	.	4
CCOC(=O)CC(NC(=O)c1ccco1)c1ccc(OC)cc1 (stereo not given)
    4018	4	-6	-6	-1.1	-2	-7
COC(=O)c1c(NC(=O)c2c(OC)cccc2OC)sc2c1C(C(=O)OC)CC2 (stereo not given)
    3359	9	-1	-5	0.7	-7	2
CCN(CC(=O)Nc1cc(Cl)ccc1C)C(=O)c1nc2nc(C)cc(C)n2n1
    4626	-1	-1	-2	3.6	.	6
COc1ccc(/C=N/NC(=O)c2cccs2)c2ccccc12
    ?	-58	.	.	.	-1	.
CCCCN(C(=O)CSc1c(C)c(C)cc(C)c1C)c1c(N)n(CCC)c(=O)[nH]c1=O
    9074	-11	7	3	2.1	.	6
CC(NC(=O)c1ccc(F)cc1)C(c1cccs1)N1CCN(C)CC1 (stereo not given)
    21892*	-25	-2	0	0.0	6	-1
O=C(NCc1ccc2c(c1)OCO2)C1CCC(CNS(=O)(=O)c2ccccc2)CC1 (stereo not given)
    .	-18	-5	6	-10.0	4	10
Cc1ccc(C)c(C(=O)COC(=O)CCCC(=O)Nc2cc(C(F)(F)F)ccc2Cl)c1
    2461	0	3	0	6.5	-8	0
Cc1cccc(N2CCN(C(=O)Cc3ccc(-n4c(=O)[nH]c5ccsc5c4=O)cc3)CC2)c1C
    2505	-66	5	3	6.4	4	2
CN(Cc1ccccc1F)C(=O)c1ccc2c(=O)n3c(nc2c1)CCC3
    .	-26	1	4	2.0	-5	3
O=C1c2cccnc2C(=O)N1CNc1ccc(Cl)cc1
    4539	-17	9	5	5.6	2	0
Cn1c(N)c(C(=O)CSc2nc(N)cc(N)n2)c(=O)n(C)c1=O
    4613	-18	3	-11	2.3	3	-2
CCCc1cc2c(=O)c(-c3ccccn3)coc2cc1OC
    9288	-187	-5	8	12	0	7
COc1ccc2cc(-c3cc(C(=O)OCC(=O)NC4CCS(=O)(=O)C4)c4ccccc4n3)ccc2c1 (stereo not given)
    2103	30	-3	1	1.5	22	2
CC(C)(C)c1ccc(-c2nc3[nH]c(=O)cc(NC(=O)c4ccco4)n3n2)cc1
    5217	-43	-1	.	5.4	6	.
COc1cccc(OC)c1C(=O)NC(=O)NNc1cc(C(F)(F)F)cc(C)n1
    .	-6	-6	-5	0.9	7	1
Cc1c(C(c2ccc([N+](=O)[O-])cc2)c2c(C)n(C)n(-c3ccccc3)c2=O)c(=O)n(-c2ccccc2)n1C
    2557	-15	7	-7	5.0	2	0
CNC(=S)NN=Cc1cc(Br)cc(Br)c1O
    .	.	1	-1	17	.	2
O=C(COC(=O)c1sc2ccccc2c1Cl)Nc1ncc(Cl)cc1Cl
    2029	-6	.	.	.	-6	.
N#Cc1cccc(Cn2cc(C(F)(F)F)ccc2=O)c1
    3373	-8	5	-3	6.3	-9	1
COCCN1C(=O)C(O)=C(C(=O)c2ccco2)C1c1cccc(Oc2ccccc2)c1 (stereo not given)
    3963	-8	-5	0	18	2	-3
O=C(Nc1cccc(NC(=O)C2C3CC4OC(=O)C2C4C3)c1)c1ccccc1 (stereo not given)
    3232	14	5	-2	7.1	2	-9
COc1ccc(NS(=O)(=O)c2c(C(=O)N3CCCCCC3)c(C)n(C)c2C)cc1
    4382	-3	0	-3	-1.9	-2	1
C(=C\c1nc(N2CCCC2)c2ccccc2n1)/c1ccccc1
    2738	-8	-2	45*	14	3	12*

# Next part
# Values in the order: Bead autofluor	PrP UTR inh	ugtP null kill	Mtb hypoxia inh	RN4220 kill	BJeLR lethal	Mtb hypoxia inh growth
O=C(NC1CCCCCC1)c1ccc([N+](=O)[O-])s1
    ?	-2	-2	12	3.2	.	24
Cc1cccc(C(=O)Oc2ccc(/C=N/NC(=O)c3cc(O)cc(O)c3)cc2)c1
    5894	-12	.	.	.	6	.
COc1ccccc1OCC(=O)Nc1ccc(S(=O)(=O)Nc2onc(C)c2C)cc1
    3723	-9	4	3	3.6	-1	7
NCC12CC3CC(C1)CC(c1ccc(Br)cc1)(C3)C2
    3067	7	-11	19	-10	14	18
O=C(CC=NOCc1ccc([N+](=O)[O-])cc1)Nc1ccc(F)cc1F
    .	.	-3	6	-2.6	.	1
CCOc1cccc(N(C(=O)CCC(=O)Nc2cc(C)on2)C(C(=O)NC(C)(C)C)c2ccc(OC)cc2)c1 (stereo not given)
    5399	-22	-1	5	4.9	-12	-1
COC(=O)c1cc(C(=O)OC)cc(N2C(=O)CN=C2Nc2nc(C)cc(C)n2)c1
    2536	-7	14	-3	23	14	-6
Cc1ccn2c(C(=O)NN=Cc3ccccc3[N+](=O)[O-])c(C)nc2c1
    .	.	11	8	3.7	.	22
Cc1ccc(Nc2nnc(SC3CCOC3=O)s2)c(C)c1 (stereo not given)
    11527	9	-9	7	6.0	21	-3
CC(C)CCNc1cc(=O)n(C)c(=O)n1C
    3139	-25	-1	9	3.2	5	5
COc1ccc(-c2c(C)oc3c(CN4CCCC(C)C4)c(O)ccc3c2=O)cc1OC (stereo not given)
    3432	-6	12	9	1.5	13	7
COC(C[C@@H](O)C[C@H](O)[C@H](C)OCc1ccccc1)OC
    3684	-11	.	.	.	-5	.
COC(=O)C1=C(C(=O)OC)SC(=C2C(=S)C(C)(C)N(C(=O)CC(C)C)c3ccccc32)S1
    9739	-8	-3	-15	-2.2	-1	-1
COc1ccc(S(=O)(=O)N(CCC#N)Cc2ccco2)cc1OC
    5984	-13	5	-1	4.5	1	3
C=CCSc1nnc(NC(=O)c2ccc(S(=O)(=O)NCC3CCCO3)cc2)s1 (stereo not given)
    11306	-28	-9	0	11	-1	1
O=C(CSc1nnc(Cc2ccccc2)o1)NCc1ccc2c(c1)OCO2
    4297	-33	15	10	0.8	11	-4
COc1ccc(S(=O)(=O)NC(C)C(=O)NCc2ccncc2)cc1Cl (stereo not given)
    3790	-30	9	6	-2.0	10	3
COc1ccc(S(=O)(=O)N2CCOC23CCN(C(=O)c2ccccc2Br)CC3)cc1
    5977	-20	-1	13	4.9	4	8
CC1(C)CN(c2ccc(N3CC(C)(C)C3=O)cc2)C1=O
    3548	-84	1	3	0.4	12	1
O=C1OCc2cc(-n3cccc3)ccc21
    3900	-17	-2	-5	-4.3	-2	-8
CC(=O)c1nn(-c2ccccc2)cc1C(=O)c1ccc(Br)cc1
    2052	-13	6	5	1.2	-3	1
O=C(Cc1c(C(=O)O)[nH]c2ccccc12)Nc1ccc2c(c1)OCO2
    16805*	-18	4	9	1.0	-12	9
CC1=C(C(=O)N2CCCC(C(=O)c3cccc(C(F)(F)F)c3)C2)OCCO1 (stereo not given)
    2074	-20	6	17	6.1	6	1

# Given as labelled records: four of the compounds above
Cc1ccc(Nc2nnc(SC3CCOC3=O)s2)c(C)c1 (stereo not given)
  Bead autofluor = 11527 | PrP UTR inh = 9 | ugtP null kill = -9 | Mtb hypoxia inh = 7 | RN4220 kill = 6.0 | BJeLR lethal = 21 | Mtb hypoxia inh growth = -3
CC(C)CCNc1cc(=O)n(C)c(=O)n1C
  Bead autofluor = 3139 | PrP UTR inh = -25 | ugtP null kill = -1 | Mtb hypoxia inh = 9 | RN4220 kill = 3.2 | BJeLR lethal = 5 | Mtb hypoxia inh growth = 5
COc1ccc(-c2c(C)oc3c(CN4CCCC(C)C4)c(O)ccc3c2=O)cc1OC (stereo not given)
  Bead autofluor = 3432 | PrP UTR inh = -6 | ugtP null kill = 12 | Mtb hypoxia inh = 9 | RN4220 kill = 1.5 | BJeLR lethal = 13 | Mtb hypoxia inh growth = 7
COC(C[C@@H](O)C[C@H](O)[C@H](C)OCc1ccccc1)OC
  Bead autofluor = 3684 | PrP UTR inh = -11 | ugtP null kill = . | Mtb hypoxia inh = . | RN4220 kill = . | BJeLR lethal = -5 | Mtb hypoxia inh growth = .

# Not a hit list; about 4% have a hit in one of these screens.
